Assay outcomes deposited in PubChem BioAssay by National Center for Advancing Translational Sciences (NCATS).
Rango release inh: prevents RanGTP from dissociating the Rango-importin beta complex; O95149+P62826; Biochemical FRET Rango-importin beta, RanGTP-induced dissociation; Potency, µM (series often up to 46.1 µM), for the others: top-dose activity change, negative = inhibition; hit rate 0.071% among 340,000; active means falling FRET ratio curve, often poorly fitted, with flat reads before Ran was added; inconclusive means other falling curves, or compound fluorescence or quenching; inactive means flat or rising ratio curve;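 also: potency is read from the fitted curve at half-maximal effect; % of control where 0% means no effect; nearly all actives have a fitted effect of over 45% in size; -100% = wells without RanGTP and RCC1; the record marks most hits as doubtful in a second field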
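Two FRET readings bracket the reaction: one 5 min after compound meets Rango–importin beta, another 45 min after RanGTP-RCC1 (0.6 uM Ran, 0.2 uM RCC1, 2 mM GTP) is added. Only the second defines inhibition.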
miR-21 reporter: raises the signal of a miR-21 reporter | HeLa miR-21 FLuc reporter, luciferase, 48 h | Potency, µM (series often up to 38.3 µM), inactives show at the highest dose reporter change, positive = more light | 340,000 tested, under 10 active; active = well fitted rising curve with a large enough effect; inconclusive = small, poorly fitted or top-dose-only effect; inactive = no such curve, though single readings can be large or run the other way;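 also: % of control where 0% means no effect; miR-21 action dims this reporter so a rising signal means less miR-21 action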
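HeLa miR-21-FLuc reporter line, endogenous miR-21; 2000 cells/well in DMEM/10% FBS; compound titration up to ~40uM final, 48 h, 37 degree Celsius; luciferase detection reagent, 15 min lysis, CCD luminescence.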
GLA inh pH 4.5: alpha-galactosidase A (human) inhibition, pH 4.5 | 230,000 tested, under 10 active | AID 1467 | purified enzyme, 4-MU-alpha-Gal fluorescence, pH 4.5 | activity change, negative = inhibition, % at 105 µM; inconclusive = small, poorly fitted or top-dose-only inhibition, or a rising curve; inactive = flat fitted curve, though single readings scatter; no compound was filed as active;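 also: 0% = full activity with enzyme and -100% = basal without enzyme; dose as in the result columns while the protocol names 77 µM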
Target sequence (P06280 whole entry, looked up): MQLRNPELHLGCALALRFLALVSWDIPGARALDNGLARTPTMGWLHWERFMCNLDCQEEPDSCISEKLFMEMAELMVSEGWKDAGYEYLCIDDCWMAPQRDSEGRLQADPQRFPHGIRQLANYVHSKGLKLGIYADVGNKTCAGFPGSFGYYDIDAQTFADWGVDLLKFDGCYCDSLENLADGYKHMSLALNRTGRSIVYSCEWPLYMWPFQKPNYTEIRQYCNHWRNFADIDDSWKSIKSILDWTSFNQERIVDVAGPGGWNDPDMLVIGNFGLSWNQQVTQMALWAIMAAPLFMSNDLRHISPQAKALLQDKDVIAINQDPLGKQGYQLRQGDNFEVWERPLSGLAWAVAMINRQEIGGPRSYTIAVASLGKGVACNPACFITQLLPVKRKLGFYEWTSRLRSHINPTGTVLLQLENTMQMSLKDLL
Rango-impB inh: prevents formation of the Rango-importin beta complex; Q14974; Rango CFP/YFP FRET sensor + importin beta, 45 min; Potency, µM (series often up to 92.2 µM), without a hit: at the highest dose inhibition of complex formation; hit rate 0.031% among 340,000; AID 540263; active = rising FRET ratio curve, often small or poorly fitted; inconclusive = mostly compound fluorescence or quenching in the first reads; inactive = flat curves in all reads;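 also: potency is read from the fitted curve at half-maximal effect; 0% = DMSO wells and 100% = buffer wells lacking importin beta; nearly all actives have a fitted effect of over 15% in size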
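FRET biosensor (snurportin 1 IBB flanked by EYFP and cerulean), 50 nM, with compound 5 min, then 0.125 microM importin beta in PBS, 1 mM DTT, 0.02% Tween-20, 0.1% BSA. CFP/YFP ratio read after 45 min at room temperature; pre-read flags interference.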
An asterisk follows results filed as active; ? = inconclusive; . = not tested or not shown. An excerpt, so the mix of outcomes need not match the whole.

GLA inh pH 4.5,Rango release inh,SMILES,miR-21 reporter,Rango-impB inh
-15.0,8.4%,OCCNc1nc(OCC(F)(F)F)nc(N2CCN(C34CC5CC(CC(C5)C3)C4)CC2)n1,-4.4%,-0.4%
-9.1,1.1%,COc1ccc(/C(C)=N/Nc2ccc(C(=O)O)cc2)c(OC)c1,-46.4%,0.0%
.,30.0%,CS(=O)(=O)c1ccc(Cl)c(NC(=O)COC(=O)COc2ccc3c(c2)CCC3)c1,.,0.9%
-1.3,4.6%,Cn1cc(CNC(=O)Nc2ccc3c(c2)OCO3)cn1,-23.9%,-3.7%
-2.4,24.1%,COc1ccc(C(=O)Nc2c(N)nc(SCC(=O)N3CCC(C)CC3)[nH]c2=O)cc1OC,-0.3%,1.3%
1.6,0.1%,Cc1cc(NC(=O)CSc2ccc3nnc(CCNC(=O)c4ccccc4)n3n2)no1,-1.3%,-0.3%
.,-3.7%,O=C(Nc1ccc2c(c1)C(=O)NC2=O)c1cccc(C(F)(F)F)c1,1.8%,2.7%
-4.4,30.2%,COc1ccc(C2C(C(=O)N3CCC(C(N)=O)CC3)CC(=O)N2c2ccc(OC)cc2)cc1 (configuration not stated),-0.6%,0.6%
-4.8,-19.6%,Cc1n[nH]c(C)c1S(=O)(=O)N1CCCC(C(=O)NC2CCCCC2)C1 (configuration not stated),-5.2%,-5.8%
-6.4,0.5%,c1ccc(NCCCNc2ccccc2)cc1,-9.8%,-2.0%
-11.1,-0.1%,CCN(CC)c1cc(C)c2cc(NC(=O)c3ccccc3OC)ccc2n1,?,1.3%
3.5,3.3%,CC(=O)c1ccc(NC(=O)Nc2ccc3c(c2)nc(C)n3C)cc1,-56.5%,-0.4%
-13.6,8.6%,CCn1c(C)nc2cc(C(=O)N/N=C/c3ccc(O)cc3)ccc21,-31.3%,-0.7%
-3.8,31.6%,Cc1cc(-c2nnc(SCC(=O)c3ccc4c(c3)OCCO4)o2)no1,-3.2%,0.1%
-4.0,25.9%,COc1ccc(NC(=O)Nc2ccc(F)cc2)c(C)c1,-23.3%,-0.2%
-11.1,-3.9%,CC(/C=C1\SC(=S)N(NS(=O)(=O)c2ccc(C)cc2)C1=O)=C\c1ccccc1,5.0%,0.0%
.,-2.1%,CCOc1ccc(CCNC(=O)CS(=O)Cc2nc(-c3ccc(OC)c(OC)c3)oc2C)cc1OCC (configuration not stated),-11.0%,-1.9%
.,11.0%,CCc1cccc(C)c1NC(=O)Nc1c(Br)cnn1C,-4.0%,0.6%
-6.0,-12.2%,COc1cccc2cc(-c3nnc(SCC(=O)Nc4cc(C(F)(F)F)ccc4Cl)n3N)oc12,-8.3%,-3.2%
5.8,0.5%,CC(NS(=O)(=O)c1ccc(Br)cc1)C(N)=O (configuration not stated),-1.4%,5.4%
2.0,-15.2%,Cc1ccc(S(=O)(=O)N2CCN(C3CC(=O)N(Cc4ccccc4)C3=O)CC2)cc1C (configuration not stated),-6.4%,?
.,10.2%,CC(=O)N1CCN(C(=O)c2ccc(Cl)c(S(=O)(=O)N3CC(C)OC(C)C3)c2)CC1 (configuration not stated),.,0.5%
-2.1,8.0%,Cc1cc(C)nc(SCC(=O)Nc2nc(-c3ccccc3)c(-c3ccccc3)o2)n1,-5.0%,-0.7%
.,1.5%,C[C@@H](CSc1ccc(Br)cc1)CN1CC[C@H](O)CCC1=O,.,-1.0%
.,4.7%,COc1ccc(NC(=O)CN(C)C(=O)/C=C/c2cn(Cc3ccccc3)nc2-c2cccnc2)cc1,.,-0.8%
-1.6,-6.5%,O=c1[nH]c(CSc2ncccn2)nc2c1cnn2-c1ccccc1,-19.5%,?
0.1,1.5%,CCCC(=O)NCCc1ccc(F)cc1,-6.4%,-1.6%
5.1,12.6%,CC(=O)c1cccc(NC(=O)NCc2cccnc2)c1,-5.3%,4.6%
-5.0,9.3%,CC1CCN(C(=O)CN(c2ccccc2)S(=O)(=O)N(C)C)CC1,-0.9%,0.2%
-2.2,0.7%,CC1Cc2ccccc2N1C(=O)CSc1nnnn1Cc1ccccc1 (configuration not stated),-1.7%,-2.8%

Next section; it opens with the 4 that closed the last part.
GLA inh pH 4.5,Rango release inh,SMILES,miR-21 reporter,Rango-impB inh
0.1,1.5%,CCCC(=O)NCCc1ccc(F)cc1,-6.4%,-1.6%
5.1,12.6%,CC(=O)c1cccc(NC(=O)NCc2cccnc2)c1,-5.3%,4.6%
-5.0,9.3%,CC1CCN(C(=O)CN(c2ccccc2)S(=O)(=O)N(C)C)CC1,-0.9%,0.2%
-2.2,0.7%,CC1Cc2ccccc2N1C(=O)CSc1nnnn1Cc1ccccc1 (configuration not stated),-1.7%,-2.8%
.,1.0%,CCOC(=O)N1CCN(S(=O)(=O)c2ccc3c(c2)C(C)C(=O)N3)CC1 (configuration not stated),.,1.8%
7.1,3.6%,O=C(Cn1nnc2c(sc3nc4c(c(-c5ccccc5)c32)CCC4)c1=O)c1ccccc1,-0.9%,-1.0%
3.6,-8.4%,COc1ccc(OC)c(N2C(=O)C(Cl)=C(N3CCCCC3)C2=O)c1,0.9%,0.1%
-0.9,-0.4%,COc1ccc2oc(=N)c(C(=O)Nc3ccccc3)cc2c1,-43.8%,-0.4%
0.6,-11.7%,Cc1csc(NC(=O)CCc2nc3ccccc3s2)n1,-9.6%,8.2%
.,19.2%,CCOC(=O)C1CCN(Cc2c(C(=O)N3CCOCC3)nc3c(C)cccn23)CC1,-3.0%,0.5%
8.5,5.7%,Cn1c(C(=O)N2CCCCCC2)cc2c(=O)n(C)c3ccccc3c21,-19.3%,0.2%
.,1.6%,Cc1cnc(C(=O)N2CCCC(N3CCN(c4ccccc4C)CC3)C2)cn1 (configuration not stated),-2.8%,0.9%
-1.1,0.9%,OC(COc1cccc2ccccc12)CN1CCN(c2cccc(Cl)c2)CC1 (configuration not stated),0.0%,0.4%
?,39.8%,Oc1ccc(/C=N/Nc2nc(N3CCCCCC3)nc(N3CCCCCC3)n2)c(O)c1,?,0.6%
6.4,5.4%,O=C(O)/C=C/C(=O)Nc1ccc(OC(F)(F)F)cc1,-1.5%,4.7%
.,-6.7%,Cc1cc(-n2c(SCC(=O)Nc3ccc(Br)cc3)nc3n[nH]c(C)c3c2=N)ccc1Cl,-5.7%,-3.1%
-7.9,-15.6%,CC(NC(=O)CSc1nc2ccccc2n1CCC#N)c1ccc(F)cc1 (configuration not stated),-0.4%,-0.1%
.,-19.7%,COc1cc(OC)cc(C(=O)N[C@H](C(=O)OCC(=O)Nc2ccc3c(c2)OCO3)C(C)C)c1,.,-0.9%
1.8,-3.7%,COc1ccccc1CCC(=O)Nc1nc2ccccc2[nH]1,2.1%,0.8%
.,-13.3%,Cc1n[nH]c(=O)c2c(NC(=O)CSc3nn(-c4ccc(F)cc4)c(=S)s3)oc(C)c12,.,-0.9%
.,3.9%,Cc1ccc(S(=O)(=O)N(C)C(C)CCc2ccco2)cc1 (configuration not stated),.,-0.9%
.,-4.9%,COc1cc(/C=N/NC(=O)CNC(=O)/C=C/c2ccco2)cc(OC)c1OC,7.8%,-1.4%
-4.1,-5.4%,Cc1ccc2nc(SCC(=O)Nc3ccc4c(c3)OCCO4)[nH]c2c1,-22.4%,-0.5%
2.5,1.5%,COc1ccc(S(=O)(=O)N2CCCc3ccccc32)cc1OC,-21.1%,1.2%
4.4,-19.4%,CN1c2ccccc2C(=O)NC1c1ccc(Cl)cc1 (configuration not stated),-13.6%,?
.,-8.5%,Cc1c(NS(=O)(=O)c2cccc(C(=O)OCC(=O)c3ccc(Cl)cc3)c2)c(=O)n(-c2ccccc2)n1C,.,-1.8%
8.4,18.3%,Cn1c(COc2ccccc2)nnc1SCCC(=O)Nc1ccccc1,-3.6%,-4.7%
.,21.4%,CNC(=O)c1ccc(NC(=O)c2cc(S(=O)(=O)N(C)C)ccc2N2CCCC2)cc1,.,1.6%
-0.8,-13.4%,Cc1ccc(NS(=O)(=O)c2ccc(/C=C/C(=O)O)cc2)cc1Cl,-2.1%,1.2%
-2.4,-6.3%,O=C(COC(=O)c1ccc([N+](=O)[O-])o1)Nc1nc2ccccc2s1,-1.4%,-5.7%
-5.0,-9.8%,Cc1c(C(c2ccc(N(C)C)cc2)c2c(C)n(C)n(-c3ccccc3)c2=O)c(=O)n(-c2ccccc2)n1C,7.1%,-2.3%
5.0,-2.0%,Cc1cc(/C=N/NC(=O)C(=O)NCc2ccccn2)c(C)n1-c1ccccc1,-37.4%,1.7%
1.3,-7.1%,S=c1[nH]nc(-c2ccccn2)n1/N=C/c1cccs1,-0.1%,-0.7%
.,-11.3%,CCCc1cc(=O)[nH]c(SCC(=O)Nc2sc3c(c2C(N)=O)CCCC3)n1,.,0.1%

3 compounds from above, ordered by the number in miR-21 reporter, high to low.
GLA inh pH 4.5,Rango release inh,SMILES,miR-21 reporter,Rango-impB inh
.,-4.9%,COc1cc(/C=N/NC(=O)CNC(=O)/C=C/c2ccco2)cc(OC)c1OC,7.8%,-1.4%
-1.1,0.9%,OC(COc1cccc2ccccc12)CN1CCN(c2cccc(Cl)c2)CC1 (configuration not stated),0.0%,0.4%
8.5,5.7%,Cn1c(C(=O)N2CCCCCC2)cc2c(=O)n(C)c3ccccc3c21,-19.3%,0.2%

(cont.)
GLA inh pH 4.5,Rango release inh,SMILES,miR-21 reporter,Rango-impB inh
.,-7.2%,CCCCN(C)Cc1c(O)ccc2c(=O)c(-c3ccccc3OC)coc12,-1.6%,-0.1%
.,-0.1%,O=C(Nc1ccc2c(c1)CCCN2C(=O)c1cccs1)c1cccc(F)c1,1.2%,-0.3%
.,-1.8%,COc1ccc(CCN2Cc3c(N)cccc3C2=O)cc1OC,-8.6%,-0.2%
.,20.0%,COc1ccc(S(=O)(=O)N(C)C[C@H]2Oc3c(NC(=O)Nc4c(C)noc4C)cccc3C(=O)N([C@H](C)CO)C[C@@H]2C)cc1,.,0.1%
.,-6.9%,Cc1ccc(CNC(=O)c2ccc(N3CCC4(CC3)CC(c3ccccc3)=NO4)c(N)c2)cc1,-0.2%,-1.0%
.,-0.8%,CC(C)(C)c1ccc(-c2n[nH]c(=S)n2Cc2ccccc2)cc1,19.9%,1.7%
17.0,3.6%,CCOC(=O)c1nn(-c2ccccc2)c2nnc(Cc3ccccc3)c(=O)n12,-2.7%,-0.2%
.,9.7%,Cc1cc(NS(=O)(=O)c2ccc(NC(=O)c3ccc([N+](=O)[O-])c(Cl)c3)cc2)no1,-9.0%,0.5%
.,14.8%,CCOC(=O)C1=CNS(=O)(=O)NC1c1ccc(C(=O)OC)cc1 (configuration not stated),.,-0.3%
.,9.2%,COC(=O)C1=CN(c2cc(C)cc(C)c2)C=C(C(=O)OC)C1c1ccc(OC)c(O)c1,-13.6%,1.5%
-0.4,2.9%,O=C(c1ccc(F)cc1)N1CCN(c2ccc([N+](=O)[O-])c(N3CCCCC3)c2)CC1,-1.3%,3.7%
-0.7,-6.2%,COc1ccc(N2C(=O)CSC2c2ccc3c(c2)OCO3)c(OC)c1 (configuration not stated),0.7%,0.0%
.,0.4%,Cc1ccc(N2C(=O)CC(C)CC2=O)cc1,-8.0%,-1.5%
-9.2,-7.8%,O=[N+]([O-])c1ccc(-c2csc3[n+]2CCS3)cc1,4.0%,0.5%
0.8,-3.4%,CCc1cc2cc3c(cc2nc1SCC(=O)Nc1cc(C)on1)OCO3,1.1%,2.0%
.,-3.8%,CC1(C)S[C@@H]2[C@H](NC(=O)C(NC(=O)N3CCNC3=O)c3ccccc3)C(=O)N2[C@H]1C(=O)O (some centres not stated),-0.9%,-0.7%
-8.4,10.1%,CCC(C)N1C(=O)CCC1C(=O)N1CCN(c2ccccc2F)CC1 (configuration not stated),-2.8%,0.3%
9.5,1.2%,O=C(O)CNC(=O)CC1S/C(=N/N=C/c2ccccc2O)NC1=O (configuration not stated),-8.7%,-0.6%
.,-5.7%,CC(C)c1ccc(NC(=O)CSc2nc(=O)n(CCCN3CCOCC3)c3c2CCC3)cc1,.,4.7%
.,-5.0%,Cc1ccccc1C(=O)c1cccn1CC(=O)NCCCN1CCCCC1,-0.8%,-0.5%
-5.4,-18.7%,CC1CCN(CCCCOc2ccc(C(=O)c3ccccc3)cc2)CC1,3.8%,0.1%
